GIRK2 act = opens human GIRK2 potassium channels; P48051; AID 1259325; calls only for hits at 25 µM; 63,000 tested, 0.05% active; HEK293-GIRK2 thallium flux, Thallos fluorescence;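 active = among the strongest 0.2% of first-round signals and kept after retests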;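 also: first round at about 10 µM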
Target sequence (P48051 whole entry, looked up): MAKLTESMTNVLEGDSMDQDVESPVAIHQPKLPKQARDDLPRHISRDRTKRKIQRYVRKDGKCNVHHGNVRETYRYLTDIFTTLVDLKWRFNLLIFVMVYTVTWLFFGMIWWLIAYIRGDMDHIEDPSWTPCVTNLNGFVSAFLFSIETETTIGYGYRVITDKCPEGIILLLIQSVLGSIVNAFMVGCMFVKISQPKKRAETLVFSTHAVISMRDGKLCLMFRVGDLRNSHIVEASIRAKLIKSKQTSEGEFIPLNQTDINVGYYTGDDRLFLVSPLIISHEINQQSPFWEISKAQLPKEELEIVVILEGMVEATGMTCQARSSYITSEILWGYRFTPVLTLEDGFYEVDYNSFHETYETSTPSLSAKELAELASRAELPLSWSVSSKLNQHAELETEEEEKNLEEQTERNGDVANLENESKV
Calls only; i = inactive. Not all compounds are listed. The share of hits here may be higher or lower than overall.

Compound,GIRK2 act
NS(=O)(=O)c1ccc(NC(=O)c2ccoc2COc2ccccc2)cc1,i
Cc1nc2cc(NC(=O)Cc3csc(NC(=O)c4ccc(=O)[nH]c4)n3)ccc2s1,i
O=S(=O)(Nc1cnc(Oc2ccccc2F)nc1)c1ccccc1Cl,i
CSc1ccccc1C(=O)NCc1ccc(C(O)c2cccs2)s1 (stereo not given),i
CCS(=O)(=O)N1CCN(CC(O)c2cccs2)CC1 (stereo not given),i
CS(=O)(=O)N1CCCc2ccc(NS(=O)(=O)c3ccc4c(c3)OCCO4)cc21,i
Cc1cccc(N2CCN(C(=O)CCn3cnc4c([nH]c5ccccc54)c3=O)CC2)c1C,i
COc1ccc(C)cc1NC(=O)CSc1cc(-c2ccccn2)nc(C)n1,i
COc1ccc(F)cc1S(=O)(=O)Nc1ccc2c(c1)N(S(=O)(=O)c1ccc(C)cc1)CCC2,i
Cc1ccc(/C=C/S(=O)(=O)NCCn2cnc(-c3ccccc3)cc2=O)cc1,i
O=S(=O)(c1ccc(Br)cc1)N1CCCC(c2nc(-c3cccs3)no2)C1 (stereo not given),i
COc1ccc(C(=O)Nc2ccc3c(c2)CCC(=O)N3CC(C)C)cc1,i
O=S(=O)(Cc1nc(-c2ccc(Br)cc2)no1)c1ccc(F)cc1,i
Cn1cnc(S(=O)(=O)NCCn2ccc(C(F)(F)F)n2)c1,i
O=C(NCCn1nc(-c2cccs2)ccc1=O)C1CCCN(c2ccc(-c3ccco3)nn2)C1 (stereo not given),i
COc1ccc(C(=O)NCC(C)(O)CSC)cc1OC (stereo not given),i
COc1ccc(C(CNS(=O)(=O)c2cc(OC)ccc2OC)N2CCN(C)CC2)cc1 (stereo not given),i
CC(C)c1nccn1CC1CCN(C(=O)C2(c3ccccc3)CCOCC2)CC1,i
CCN(CC)S(=O)(=O)c1ccc(C(=O)N2c3ccccc3CC2C(=O)NC)cc1 (stereo not given),i
O=C(NCCNc1cc(Nc2ccccn2)ncn1)c1ccc2c(c1)OCO2,i
O=C(NCCc1ccoc1)c1ccccc1Cl,i
O=C(CSc1ncn[nH]1)c1ccc2c(c1)OCO2,i
CCCCn1c(O)c(C=Nc2ccccc2C(=O)O)c(C)c(C#N)c1=O,i
O=S(=O)(NCCN1CCN(c2ccccc2)CC1)c1ccc2c(c1)OCCO2,i
COc1ccc(C2NC(=O)NC(C)=C2C(=O)Nc2ccc(C)c(C)c2)c(OC)c1 (stereo not given),i
Cc1cc(NC(=O)C(=O)N2CCN(Cc3ccccc3)CC2)c2ccccc2n1,i
CC(=O)NC1=NN(C(C)=O)C2(S1)C(=O)N(CCC(C)C)c1ccccc12 (stereo not given),i
CCOc1cccc2sc(-n3nc(C)cc3NC(=O)CCCS(=O)(=O)c3ccc(C)cc3)nc12,i
Cc1ccc(NC(=O)CSc2nc3c(c(=O)[nH]2)CN(C(C)C)CC3)cc1Cl,i
COc1nn(C)cc1C(=O)Nc1ccc(C(=O)NC23CC4CC(CC(C4)C2)C3)cc1,i
O=C(CCc1csc(NC(=O)NC2CCCCC2)n1)Nc1ccc2c(c1)OCCO2,i
O=C(O)c1ccc2cccc([N+](=O)[O-])c2n1,i

Part of the list above in order of length of the SMILES, low to high.
Compound,GIRK2 act
COc1ccc(C(=O)NCC(C)(O)CSC)cc1OC (stereo not given),i
O=C(CSc1ncn[nH]1)c1ccc2c(c1)OCO2,i
CSc1ccccc1C(=O)NCc1ccc(C(O)c2cccs2)s1 (stereo not given),i
NS(=O)(=O)c1ccc(NC(=O)c2ccoc2COc2ccccc2)cc1,i
CCCCn1c(O)c(C=Nc2ccccc2C(=O)O)c(C)c(C#N)c1=O,i
Cc1ccc(/C=C/S(=O)(=O)NCCn2cnc(-c3ccccc3)cc2=O)cc1,i
CS(=O)(=O)N1CCCc2ccc(NS(=O)(=O)c3ccc4c(c3)OCCO4)cc21,i

(more compounds)
Compound,GIRK2 act
Cn1cc2c(n1)c(=O)n(Cc1ccc(F)cc1)c(=O)n2CC(=O)NCc1ccccc1Cl,i
CCOCCn1c(-n2nc(C)cc2C)nc2c1c(=O)n(Cc1ccccc1C)c(=O)n2C,i
O=C(c1cccc(C(F)(F)F)c1)N1CCCC(c2nnc(-c3cccs3)o2)C1 (stereo not given),i
Cn1c(CN2CCN(C(=O)c3ccc(Br)o3)CC2)nc2ccccc21,i
COc1ncccc1C(=O)NCC(F)(F)F,i
Cc1ccccc1CS(=O)(=O)Cc1ccc(C(=O)N2CCN(c3ccccc3)CC2)o1,i
O=C1CC(c2cccs2)CC(=O)N1Cc1cc(F)ccc1F,i
CC(C)c1c(-c2nnc(Cc3ccccc3)o2)nnn1-c1ccccc1,i
COCC(=O)Nc1sc2c(c1C(=O)OC)CCC(C(C)(C)C)C2 (stereo not given),i
CCCCc1ccc(NCCn2c(C)cn3c4c(=O)n(C)c(=O)n(C)c4nc23)cc1,i
COc1ccc(NC(=O)C2CCCN(c3ccc(-c4ccc(F)cc4)nn3)C2)cc1 (stereo not given),i
O=C(NCCn1ncccc1=O)C1CCN(c2ccc(-c3ccc(F)cc3)nn2)CC1,i
O=C1CN(c2ccccc2NC(=O)Nc2ccc3c(c2)OCO3)CCN1,i
C#CCOCC1CCCN(C(=O)Cc2c(F)cccc2Cl)C1 (stereo not given),i
Cc1ccc(N2CN(CC(=O)Nc3ccccc3Cl)S(=O)(=O)c3cccnc32)cc1,i
COc1ccc(Cl)cc1S(=O)(=O)NCC(c1ccsc1)N1CCc2ccccc2C1 (stereo not given),i
CC(=O)c1ccc(NC(=O)CN2CCC(COCc3ccc(C#N)cc3)CC2)cc1,i
COc1cc(OC)c(NC(=O)CSc2cc(-n3nc(C)cc3C)ncn2)cc1Cl,i
O=C(Nc1ccc2c(c1)OCCO2)NC1(c2nc(C3CC3)no2)CCCCC1,i
O=C(Nc1ccc(-c2cnc3n2CCC3)cc1)Nc1ccc2c(c1)OCO2,i
O=C(CCCCCn1c(=S)[nH]c2cc3c(cc2c1=O)OCO3)NCc1ccccc1Cl,i
CCc1ccccc1NC(=O)C(=O)NCC(C)(O)CSC (stereo not given),i
O=C(/C=C/c1cccc(C(=O)NO)c1)NO,i
O=C(NCCC(O)C1CC1)c1nc2ccccc2s1 (stereo not given),i

In the list so far, these contain an NH in an aromatic ring.
Compound,GIRK2 act
Cc1nc2cc(NC(=O)Cc3csc(NC(=O)c4ccc(=O)[nH]c4)n3)ccc2s1,i
Cc1cccc(N2CCN(C(=O)CCn3cnc4c([nH]c5ccccc54)c3=O)CC2)c1C,i
O=C(CSc1ncn[nH]1)c1ccc2c(c1)OCO2,i
Cc1ccc(NC(=O)CSc2nc3c(c(=O)[nH]2)CN(C(C)C)CC3)cc1Cl,i
O=C(CCCCCn1c(=S)[nH]c2cc3c(cc2c1=O)OCO3)NCc1ccccc1Cl,i

Shown with the structure last: part of the list above
GIRK2 act | molecule
i | COc1ccc(Cl)cc1S(=O)(=O)NCC(c1ccsc1)N1CCc2ccccc2C1 (stereo not given)
i | NS(=O)(=O)c1ccc(NC(=O)c2ccoc2COc2ccccc2)cc1

Remaining list, next part
Compound,GIRK2 act
CC(C)(C)NC(=O)N1CCC(c2nnc(-c3ccco3)s2)CC1,i
O=C(/C=C/c1ccccc1)NCCC(O)C1CC1 (stereo not given),i
CC12CCC(C(=O)O)(c3nc4c(ccc5ncccc54)nc31)C2(C)C (stereo not given),i
CCn1c(N=Nc2c(O)[nH]c3ccccc23)nc2c1c(=O)[nH]c(=O)n2C,i
COc1ccccc1N1CCCn2c1nc1c2c(=O)n(Cc2ccccc2C)c(=O)n1C,i
CCOc1ccc(-c2noc(CSc3nccn3-c3ccccc3)n2)cc1OC,i
Cc1ccc2c(c1)N(C(=O)Cn1nc3ccc(Sc4ccccc4)nn3c1=O)CCO2,i
O=C(Nc1ccc(F)cc1)N1CCC(CNC(=O)C2(c3ccc(F)cc3)CC2)CC1,i
Cc1cccc(N2CCN(S(=O)(=O)CCCNC(=O)c3ccco3)CC2)c1,i
CCSc1nnc(NC(=O)Cn2nnc3ccccc3c2=O)s1,i
Cc1cc(-c2nc(-c3ccccc3Cl)no2)n[nH]1,i
CC1CNc2cccnc2N1 (stereo not given),i
CN1CCN(C2=Nc3cc(Cl)ccc3Nc3ccccc32)CC1,i
CCc1nc(OCC(=O)Nc2c(C)cccc2C)c2ccccc2n1,i
O=C1c2cc(O)cc(O)c2C(=O)c2c1cc(O)c(C(CO)CCO)c2O (stereo not given),i
O=C(Nc1nc(CN2CCc3ccccc3C2)cs1)c1cc2ccccc2o1,i

(listing goes on)
| structure | GIRK2 act |
| --- | --- |
| C#CC(C)(CC)OCC(O)CN1CCCCC1 (stereo not given) | i |
| Cc1cc(C)c2nc(-n3nc(C)cc3NC(=O)CN3C(=O)c4ccccc4C3=O)sc2c1 | i |
| CCSc1nnc(NC(=O)CN2CCCC(COC)C2)s1 (stereo not given) | i |
| O=c1[nH]c2nc(N3CCC4(CC3)OCCO4)ncc2c(=O)n1Cc1ccccc1 | i |
| O=C(OC1CN(c2nc3c(C(F)(F)F)cccc3s2)C1)c1ccc(F)cc1F | i |
| O=C(CCc1ccccc1)Nc1nc2c(s1)COCC2 | i |
| CCOc1ccc(OCC)c(NC(=O)CSc2nc3c(-c4ccccc4)csc3c(=O)n2C)c1 | i |
| O=C(NC1CCCC1)c1nnn(-c2ccc(NC(=O)c3ccc(Br)o3)cc2)n1 | i |
| Cn1cc(C(=O)NC2CCCCC2)c(S(=O)(=O)N2CCN(c3cccc(Cl)c3)CC2)n1 | i |
| COc1ccc(-c2noc(-c3ccc(SCC(=O)NC4CCCC4)nc3)n2)cc1 | i |
| CC(=O)Nc1cccc(C2=NN(C(C)=O)C(c3cccs3)C2)c1 (stereo not given) | i |
| CC(C)Sc1ccc(-c2nnc(NC(=O)Nc3ccccc3)o2)cc1 | i |
| Cc1ccc(C(O)CNC(=O)Nc2ccc3c(c2)OCO3)o1 (stereo not given) | i |
| CN(C)CC(O)COC12CC3CC(CC(C3)C1)C2 (stereo not given) | i |
| COc1ccc(NC(=O)CN2CN(c3ccc(F)cc3)c3ncccc3S2(=O)=O)cc1 | i |
| CCCc1nc2oc3cc(OC)ccc3c(=O)c2c(=O)n1-c1ccc(C)cc1 | i |
| COc1ccccc1Oc1c(C)oc2cc(OCC#N)ccc2c1=O | i |
| CCOc1ccc(-c2noc(-c3nnn(-c4cc(C)ccc4OC)c3N)n2)cc1 | i |
| O=C(NCCC(O)c1ccc2c(c1)OCO2)c1ccc2nsnc2c1 (stereo not given) | i |
| COc1ccc(C(=O)CSc2ncnc3sc(C)cc23)cc1 | i |
| COc1ccc(Cn2c(C)cn3c4c(=O)[nH]c(=O)n(C)c4nc23)cc1 | i |
| CCCC(=O)Nc1ccc(S(=O)(=O)NCCn2nc(-c3ccc(OC)cc3)ccc2=O)cc1 | i |
| COC(=O)CCn1c(=O)c2c(nc3n(C4CCCCC4)c(C)cn23)n(C)c1=O | i |
| COc1ccc(S(=O)(=O)N2CCC(c3nc(-c4cccc(C(F)(F)F)c4)no3)CC2)cc1 | i |
| O=C(/C=C/c1ccccc1)Nc1cccnc1 | i |
| CC(C)Oc1ccc(-c2noc(CN3N=NC4C(=O)N(c5ccc6c(c5)CCC6)C(=O)C43)n2)cc1 (stereo not given) | i |
| O=C(Nc1ccc2c(c1)OCO2)N1CCC(Cn2c(C(F)(F)F)nc3ccccc32)CC1 | i |
| Cc1ccc(NC(=O)NCCOc2cc(N3CCN(C)CC3)ncn2)cc1C | i |
| CC1=C(C(=O)OC(C)C)C(c2ccccc2Cl)NC(=O)N1C (stereo not given) | i |
| CC1Oc2ccccc2CN(c2ccc(S(N)(=O)=O)cc2)C1=O (stereo not given) | i |
| CCN(CC)C(=O)Oc1ccc2c(c1C)O/C(=C\c1ccc(OC)cc1OC)C2=O | i |
| CCCCCCCCC/C=C\CCCCCCCC(=O)NCc1ccc(O)c(OC)c1 | i |
| COc1cc(-c2noc(Cc3nnc(-c4cc(C)cc(C)c4)o3)n2)cc(OC)c1OC | i |
| Cc1cc(SCC(=O)NN2CCOCC2)nc(C(C)C)n1 | i |
| COC(=O)c1ccc(C2CCN(C(=O)c3ccc4ccccc4c3)CC2)cc1 | i |
| C=CCNC(=O)CN1CCN(Cc2nc3ccc(OC)cc3[nH]2)CC1 | i |
| Cc1c(CC(=O)O)c2cc(S(C)(=O)=O)ccc2n1Cc1ccc(Br)cc1 | i |
| CC(C)(C)c1ccc(S(=O)(=O)NCc2ccc(C(=O)O)cc2)cc1 | i |
| CCOc1ccc(-n2ccnc(NCCc3ccccc3)c2=O)cc1 | i |
| COc1ccc(C(O)=C2C(=O)C(=O)N(c3ccccn3)C2c2ccccc2)cc1Cl (stereo not given) | i |
| Cc1cc(C)cc(NC(=O)Cn2nc3c4cccc(C)c4ncn3c2=O)c1 | i |
| COc1ccc(-n2ccn(CC(=O)Nc3cc(OC)cc(OC)c3)c(=O)c2=O)cc1 | i |
| CC(Cn1nc(-c2ccco2)ccc1=O)C(=O)Nc1ccc2c(c1)OCCO2 (stereo not given) | i |
| CCOc1ccc(-c2cc3c(SCC(=O)OC)nccn3n2)cc1Cl | i |
| Cc1ccc2[nH]c3c(=O)n(CCC(=O)Nc4cccc(C(C)C)c4)cnc3c2c1 | i |
| O=C(Nc1ccc2c(c1)OCO2)c1ccc(CNS(=O)(=O)c2cccc(Cl)c2)cc1 | i |
| N#CC1=CN(c2cccc(Cl)c2F)c2ccccc2S1(=O)=O | i |
| O=C(/C=C/c1ccccc1Cl)NCCc1csc(-n2cccn2)n1 | i |
| COc1ccc(NC(=O)N2CCN(c3cc(-n4cccc4)nc(C)n3)CC2)cc1 | i |
| COc1cc(OC)cc(C(=O)Nc2ccc3c(c2)CCC(=O)N3CC(C)C)c1 | i |

The list continues.
| structure | GIRK2 act |
| --- | --- |
| O=c1c(-c2ccc(Cl)cc2)c(C(F)(F)F)oc2cc(O)ccc12 | i |
| CSc1ccccc1C(=O)NCC(O)c1ccc(C)o1 (stereo not given) | i |
| CCCNC(=O)C1CCC(Cn2c(=O)c3sccc3n(CC(=O)N3CCC(C)CC3)c2=O)CC1 (stereo not given) | i |
| O=C(NCCc1ccsc1)c1cc2ccccc2[nH]1 | i |
| COc1cc(NC(=O)N2CCC(c3nnc(-c4ccco4)s3)CC2)cc(OC)c1OC | i |

Screening results from PubChem BioAssay.
